Source: PubChem
Calb FLC – C. albicans growth inhibition with fluconazole, primary screen, CaCi-2 strain, Alamar Blue fluorescence | C. albicans CaCi-2 (fluconazole-resistant clinical isolate) + fluconazole, 48 h | AID 1979, 2009 | growth inhibition, % (no concentration beside the values) | hit rate 0.57% among 300,000;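 active means most replicates above 75%; inconclusive means exactly half above 75%; inactive means most below 75%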;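 further: all wells also contain fluconazole at 8 µg/ml as a sub-toxic cotreatment; 0% = median of DMSO wells and 100% = median of geldanamycin control wells; wells of about 8 µL received 7.5 nL stock; the first replicate is given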
ALR inh – inhibitors of human ALR sulfhydryl oxidase, primary screen, biochemical, H2O2 detection, HRP-luminol luminescence, single point | purified ALR, DTT oxidation | inhibition, % (concentration not given with the values) | hit rate 3.8% among 290,000 | AID 485317, 2010;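 active means mean and each replicate at 75% or more; inconclusive means only one of the two met; inactive means neither met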;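 further: stock transfer was 7.5 nL into about 7.5 µL; 0% = neutral wells and 100% = wells with inactivated enzyme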
Target sequence (P55789 whole entry, looked up): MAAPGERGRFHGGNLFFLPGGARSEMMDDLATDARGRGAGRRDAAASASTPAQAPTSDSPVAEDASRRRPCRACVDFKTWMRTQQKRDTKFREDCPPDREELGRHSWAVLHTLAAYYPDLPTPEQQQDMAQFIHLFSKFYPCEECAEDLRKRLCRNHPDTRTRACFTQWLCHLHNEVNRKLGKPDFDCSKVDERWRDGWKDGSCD
Beta apoptosis – inhibitors of cytokine-induced beta cell apoptosis, primary screen, luminescence | INS-1E cytokine-induced death, ATP luminescence, 48 h; percent of positive-control rescue, neutral wells zero | protection from apoptosis, % (test concentration not listed) | hit rate 0.8% among 300,000 | AID 435005, 2010;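 active means all replicates at 75% or more, or half of them and the mean; inconclusive means half reach 75% but not the mean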;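 further: 0% = cytokine-treated negative control wells and 100% = positive control rescue; higher means more ATP so stronger rescue from cytokine killing; wells of about 40 µL received 100 nL stock; the first replicate is given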
T cruzi inh – inhibitors of intracellular T. cruzi growth, primary screen, luminescence, NIH3T3 host cells; hit rate 1.4% among 300,000; inhibition, % (no concentration beside the values); AID 1885, 2009; T. cruzi beta-gal in NIH3T3, 90 h;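 active means mean inhibition across valid replicates above about 55%, limit read from the data; inconclusive means mean below that limit but half or more replicates reach it; inactive means mean below it, under half of replicates reach it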;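 further: signal also drops with host cell toxicity which is not excluded here; 0% = plate median of DMSO wells and 100% = zero luminescence signal; higher percent means less beta-gal luminescence so fewer parasites; stock transfer was 50 nL into about 50 µL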
Ecoli rRNA inh – reduced GFP signal of wild-type E. coli, primary screen, bacterial rRNA inhibitor project, GFP/RFP fluorescence, OD600, single point; GFP signal change (wild-type ribosome), % (concentration not given with the values); E. coli WT GFP vs humanized-ribosome RFP mutants, 24 h; active compounds read low; DMSO median 0, no signal -100; hit rate 1.6% among 350,000;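 active means significant combined selectivity score with lowered wild-type GFP, culture density cut under 30%, mutant RFP and density less affected; inactive means any of these conditions unmet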; further: one replicate is shown; some compounds called inactive have numbers as strong as hits
RanGTP-Imp inh – inhibitors of RanGTP-importin-beta interaction, primary screen, biochemical, FRET, CFP-Ran, YFP-importin-beta, homogeneous | Ran GTPase (GTP-bound) - importin-beta complex | hit rate 1.1% among 300,000 | inhibition, % (test concentration not listed) | cell-free CFP-Ran/YFP-importin-beta FRET ratio;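 active means most replicates above 15%; inconclusive means exactly half above 15%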;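 further: 0% = DMSO wells and 100% = Ran loaded with GDP instead of GTP; wells of about 40 µL received 100 nL stock; the first replicate is given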
AF4-AF9 inh – inhibitors of AF4 peptide binding to AF9, primary screen, biochemical, AlphaScreen, biotin-AF4 peptide, FLAG-AF9, single point; Protein AF-9 (Homo sapiens), P42568; inhibition, % at 10 µM; hit rate 0.47% among 350,000;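 active means every replicate reaching a set inhibition limit, whatever the replicate mean, cut at about 25% in these data; inconclusive means mean inhibition reaches that limit but some replicates miss it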;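 further: 0% = plate neutral control median and 100% = total signal loss; the record names both 10 and 1 µM as test concentration; the first replicate is given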
Target sequence (P42568 whole entry, looked up): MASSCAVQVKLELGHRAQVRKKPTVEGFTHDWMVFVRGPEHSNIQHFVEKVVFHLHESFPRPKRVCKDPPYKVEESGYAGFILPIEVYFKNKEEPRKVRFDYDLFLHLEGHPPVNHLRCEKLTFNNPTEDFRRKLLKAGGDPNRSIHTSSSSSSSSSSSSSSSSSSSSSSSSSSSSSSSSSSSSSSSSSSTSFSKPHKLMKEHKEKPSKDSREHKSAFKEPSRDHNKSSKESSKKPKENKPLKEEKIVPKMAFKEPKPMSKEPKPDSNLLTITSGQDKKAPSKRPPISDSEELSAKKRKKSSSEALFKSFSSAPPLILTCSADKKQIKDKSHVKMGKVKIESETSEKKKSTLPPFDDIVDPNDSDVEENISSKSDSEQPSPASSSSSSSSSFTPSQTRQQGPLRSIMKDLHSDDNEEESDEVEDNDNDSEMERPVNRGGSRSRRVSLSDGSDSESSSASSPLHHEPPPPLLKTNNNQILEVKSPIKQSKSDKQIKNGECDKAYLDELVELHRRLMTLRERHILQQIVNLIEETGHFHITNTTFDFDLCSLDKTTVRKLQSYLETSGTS
FGF22 binding – binders of human FGF22 protein, primary screen, FGF22 synaptogenesis inhibitor project, biophysical, thermal shift, single point; hit rate 1.5% among 340,000; AID 651658, 2012; calls only at 9.99 µM; recombinant FGF22 thermal shift, SYPRO orange fluorescence; percent of sucrose octasulfate shift, DMSO zero;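 active means melting point raised past a set limit in the mean and every replicate; inconclusive means no clear call; three in four hits are not shown here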
Target sequence (Q9HCT0 whole entry, looked up): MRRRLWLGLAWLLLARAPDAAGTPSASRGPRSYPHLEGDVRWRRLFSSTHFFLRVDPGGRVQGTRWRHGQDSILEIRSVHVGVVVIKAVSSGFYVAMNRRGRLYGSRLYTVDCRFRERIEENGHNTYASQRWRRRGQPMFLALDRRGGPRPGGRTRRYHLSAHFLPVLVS
Ecoli rRNA inh OD600 – second read-out of Ecoli rRNA inh, no call of its own (marks repeat the call); OD600 change, %; measured here: OD600 growth;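 optical density of the mix in the first replicate; 0 = DMSO median and -100 = no signal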
Ecoli rRNA inh RFP – second read-out of Ecoli rRNA inh, no call of its own (marks repeat the call); RFP signal change, %; measured here: RFP humanized mutant strains;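 first replicate; 0 = DMSO median and -100 = no signal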
* hit, by the source's call; i = inactive; ? = inconclusive; . = not tested or not shown; & = joins results of further samples; ! = not confirmed by another sample. A portion of the library. The share of hits here may be higher or lower than overall.

SMILES | Calb FLC | ALR inh | Beta apoptosis | T cruzi inh | Ecoli rRNA inh | Ecoli rRNA inh OD600 | Ecoli rRNA inh RFP | RanGTP-Imp inh | AF4-AF9 inh | FGF22 binding
Cn1cc(S(=O)(=O)N2CCC(C(N)=O)CC2)c(=O)n(C)c1=O | 0 | -19 | -3 | -10 | 7 | 13 | -1.9 | 4.6 | -1.8 | i
CC(=O)OCC(OC(C)=O)C(OC(C)=O)C(OC(C)=O)C(=O)Nc1ccc(C)cc1C (stereo not drawn) | -2 | -7 | 3 | -6 | . | . | . | 0.2 | . | .
Cc1ccc(-c2noc(Cn3nc(C(=O)O)c4ccccc4c3=O)n2)cc1 | -29 | -1 | -9 | 1 | -7 | -2 | -5.1 | -4.6 | 1.1 | i
CCOCCCNC(=O)/C(C#N)=C/c1ccccc1F | 4 | 46 | 0 | -7 | 6 | 6 | 3.2 | -2.0 | 0.6 | i
COc1cccc(CN(C)C(=O)c2ccc(N3CCCC3)c([N+](=O)[O-])c2)c1 | 11 | -16 | -4 | 21 | -30 | -32 | -7.5 | 2.3 | 9.2 | i
O=C(CN1C(=O)S/C(=C\c2ccc(O)cc2)C1=O)c1ccccc1 | 3 | 1 | . | 5 | -10 | -8 | -2.6 | -1.6 | 2.4 | i
O=C(N=C1SC2CS(=O)(=O)CC2N1c1cccc(F)c1)C1CC1 (stereo not drawn) | 2 | 8 | -8 | -4 | 2 | 6 | -2.1 | 2.1 | -0.6 | i
O=C(OCc1ccccc1)c1cnc(Cl)c(Cl)c1 | 1 | . | 0 | -10 | -2 | 1 | -2.3 | -0.9 | 1.2 | i
Cc1nnc2n1NC(c1ccc(Cl)cc1)C(C(=O)N1CCC(C)CC1)S2 (stereo not drawn) | 2 | -5 | -3 | -1 | 13 | 7 | 0.9 | 2.2 | . | .
COC(=O)/C=C1\N/C(=N\c2nc(C)cc(C)n2)N(c2ccc(Cl)cc2)C1=O | 1 | 14 | -1 | -21 | 6 | -6 | 2.9 | 0.1 | -0.6 | i
O=C(/C=C/c1ccccc1)c1ccccc1 | . | . | -8 | -13 | . | . | . | 4.3 | 7.3 | i
O=C(OCC(=O)c1ccc[nH]1)c1ccc([N+](=O)[O-])cc1 | . | 0 | -1 | . | -3 | 9 | -2.0 | . | 0.5 | i
Cc1ccc(C(=O)N/N=C2\CCCc3ccccc32)c(C)c1 | -6 | -6 | 0 | -17 | 10 | 16 | 1.0 | 1.6 | -1.2 | i
COC(=O)c1ccc(-c2csc(NC(=O)c3ccc(S(=O)(=O)N4CCc5ccccc5C4)cc3)n2)cc1 | -4 | -1 | -6 | -2 | . | . | . | -1.9 | . | .
O=C(NC(CO)Cc1ccc([N+](=O)[O-])cc1)C(Cl)Cl (stereo not drawn) | -1 | -2 | 5 | -17 | . | . | . | . | -3.7 | .
Cc1nnc(SCC2=C(C(=O)O)N3C(=O)C(NC(=O)c4cccc(F)c4F)C3SC2)s1 (stereo not drawn) | -12 | . | -5 | -10 | 7 | 18 | -5.3 | 1.5 | -10 | i
COc1cccc(NC(=O)CN(C)C(=O)c2cccc(S(=O)(=O)Nc3ccc(C)cc3)c2)c1 | . | -1 | -2 | . | -11 | -32 | -0.3 | . | 4.2 | i
COc1ccc(N2CC(C(=O)N[C@@H](C)C(=O)NCc3ccccc3OC)CC2=O)cc1 (stereo partly drawn) | . | -3 | -7 | 3 | 5 | 5 | -3.1 | 2.9 | 2.0 | i
O=C(COc1cccc(NC(=O)c2cccc([N+](=O)[O-])c2)c1)c1ccc(F)cc1 | 15 | -1 | 5 | -11 | . | . | . | -0.3 | . | .
O=C(C1CCN(S(=O)(=O)c2ccccc2)CC1)N1CCc2ccccc21 | -11 | . | 5 | 19 | 12 | 11 | 2.8 | -1.9 | -2.0 | i
CN1CCN(NC(=O)Nc2cccc(Cl)c2Cl)CC1 | -6 | 1 | -5 | 57* | 8 | 8 | 0.5 | -2.7 | -0.9 | i
O=C(N/N=C/C=C\c1ccccc1)c1cnccn1 | -23 | -35 | 2 | -16 | 1 | 5 | -0.5 | . | -13 | i
C=C1C(=O)O[C@H]2C[C@]3(C)C([C@@H](OC(=O)/C(C)=C/C)[C@H]12)[C@](C)(O)CC[C@H]3O (stereo partly drawn) | 7 | 25 | -32 | -9 | 18 | 12 | 5.5 | 2.2 | -5.5 | i
CC1CCCN(C(C(=O)Nc2ccc3c(c2)OCO3)c2ccccc2)C1 (stereo not drawn) | -1 | -10 | . | 14 | -17 | -23 | -16 | 8.0 | 4.9 | i
CSCCC1NC(=O)N(CC(=O)Nc2ccc3c(c2)OCCO3)C1=O (stereo not drawn) | . | 0 | 3 | . | 10 | 21 | -1.3 | . | -45 | i
SMILES | Calb FLC | ALR inh | Beta apoptosis | T cruzi inh | Ecoli rRNA inh | Ecoli rRNA inh OD600 | Ecoli rRNA inh RFP | RanGTP-Imp inh | AF4-AF9 inh | FGF22 binding
O=C(CN(CC1CCCO1)C(=O)CCC(=O)Nc1ccccn1)NCC1CCCO1 (stereo not drawn) | 7 | 0 | -3 | 5 | . | . | . | 4.4 | . | .
O=C(NC1CCCCCC1)C1CCC(CNS(=O)(=O)c2ccc(Br)s2)CC1 (stereo not drawn) | 12 | -2 | 20 | 6 | . | . | . | 2.7 | . | .
COc1cc(C=O)ccc1OCc1ccc(Cl)nc1 | 27 | -7 | -5 | -11 | -8 | 0 | -8.9 | 4.6 | -1.5 | i
O=C(Nc1ccccc1)OCCOc1ccccc1 | -4 | 7 | 3 | -3 | . | . | . | 4.8 | . | .
CCCCCn1c(=N)n(CC(O)COc2ccccc2OC)c2ccccc21 (stereo not drawn) | 1&-7 | -12&-70 | 21&14 | 26&9 | -23&-18 | -53&-48 | 4.6&8.8 | 1.4&-0.6 | 50*! | i
COc1cc(OC)cc(C(=O)NC(=S)N2CCCCCC2)c1 | -39 | -4 | 8 | 25 | -31* | -23* | -9.5* | -1.5 | 2.5 | i
COC(=O)c1c(-c2ccccc2)csc1N1C(=O)Nc2ccccc2N1O | 12 | 15 | 2 | 6 | -23 | -33 | -8.2 | . | -2.7 | i
CCCCCN(C(=O)NC(=O)Nc1ccc(C)cc1)S(=O)(=O)c1ccccc1 | 3 | -4 | 3 | 4 | -1 | -1 | -0.6 | -0.9 | -5.2 | i
O=C(/C=C/c1cccs1)N1CCN(c2ccccc2F)CC1 | 6 | 54 | 2 | -15 | . | . | . | ? | . | .
COC(=O)C1=C(C)NC(=O)/C1=C\c1cc(C)n(-c2c(C)cccc2C)c1C | ? | -4 | -2 | -2 | . | . | . | 1.8 | . | .
CCC1CCCCN1CCCNC(=O)C1CCCN(c2ncnc3c2nc2n3CCCCC2)C1 (stereo not drawn) | -5 | -1 | -1 | -1 | 5 | 14 | -0.7 | 2.4 | -8.3 | i
COCCCn1c(=O)c2sccc2n(Cc2ccc(C)cc2)c1=O | 5 | -2 | -3 | 4 | 3 | -1 | -2.4 | 1.8 | -2.7 | i
Cc1cc(OCC(=O)NC2CCN(Cc3ccccc3)CC2)c2c(C)c(C)c(=O)oc2c1 | 19 | -2 | 9 | 25 | . | . | . | 0.5 | . | .
COC(=O)[C@H](CC(C)C)NC(=O)NCCCc1ccccc1 | -77 | . | 0 | -35 | . | . | . | 5.5 | . | .
CC(NC(=O)c1ccc(NC2=NC3CS(=O)(=O)CC3S2)cc1)c1ccccc1 (stereo not drawn) | 1 | 11 | -3 | -8 | 1 | 9 | 5.4 | 2.1 | 5.6 | i
O=c1oc(-c2ccco2)nc2sc3c(c12)CCCCC3 | 6 | 88* | 0 | -6 | -7 | -8 | 1.5 | -2.0 | 4.5 | i
O=C(NNC(=O)C1CCCO1)c1ccc(F)cc1 (stereo not drawn) | 7 | -8 | -7 | 22 | . | . | . | -5.4 | . | .
COc1cc2ccccc2cc1C(=O)Nc1ccccc1N1CCN(S(C)(=O)=O)CC1 | 55 | 2 | 10 | 37 | . | . | . | -1.7 | . | .
CC(C)(C)OC(=O)NC(Cc1ccccc1)C(=O)N1CCCC1C(=O)O (stereo not drawn) | -4 | 0 | 0 | 3 | 7 | 21 | 1.6 | 5.5 | -11 | i
Cc1nc(NC(=O)c2ccc(Cl)cc2)nc2cc3c(cc12)OCO3 | -12 | -7 | 0 | 6 | . | . | . | 2.5 | . | .
CN(C(=O)CSc1ncc(C(F)(F)F)cc1Cl)c1c(N)n(Cc2ccccc2)c(=O)[nH]c1=O | -4 | -2 | -8 | -10 | 5 | -2 | 2.7 | -2.3 | 0.3 | i
O=C(CSCc1ccc(Cl)cc1)NCc1ccccn1 | -13 | -6 | -6 | -20 | -1 | 3 | -0.2 | -1.0 | 1.3 | i
CN(Cc1cccc(F)c1)C(=O)c1ccc(S(=O)(=O)C(F)F)cc1 | -2 | -12 | -2 | -19 | . | . | . | 2.6 | . | .
CN(C)CCCN(C(=O)c1ccc(C(=O)c2ccccc2)cc1)c1nc2ccc(F)cc2s1 | -4 | -143 | 3 | 57* | -53 | -71 | -15 | 3.9 | 17 | i
CCOC(=O)Cc1csc(NC(=O)c2cc(C)on2)n1 | 9 | -8 | -2 | -6 | 2 | -2 | -3.8 | -1.0 | -0.1 | i
SMILES | Calb FLC | ALR inh | Beta apoptosis | T cruzi inh | Ecoli rRNA inh | Ecoli rRNA inh OD600 | Ecoli rRNA inh RFP | RanGTP-Imp inh | AF4-AF9 inh | FGF22 binding
N#CCNC(=O)C1CC(=O)N(CCc2ccc(F)cc2)C1 (stereo not drawn) | 0 | 25 | . | -15 | 6 | 8 | 1.0 | 1.5 | -3.4 | i
CCOC(=O)N1CCN(S(=O)(=O)c2ccc(C(=O)NNc3nc4c(C)cccc4s3)cc2)CC1 | 0 | 58 | 55 | 44 | -11 | -9 | -0.7 | ? | 12 | i
CCOC(=O)CSc1nc2ccsc2c(=O)n1C1CCN(C(=O)OCC)CC1 | -30 | -6 | 1 | 13 | 14 | 4 | -8.9 | 7.3 | 11 | i
Cc1ccc(C(C(=O)NCc2ccco2)N(C(=O)Cn2nnc3ccccc32)c2ccccc2)o1 (stereo not drawn) | 2 | -1 | 4 | 11 | . | . | . | -1.5 | . | .
CCc1ccc[n+](-c2[nH]c(=O)sc2/C=N/N=C(\[O-])CCn2c3ccccc3c3ccccc32)c1 | 9 | 3 | -2 | -16 | . | . | . | 0.6 | 1.3 | i
COc1ccc(C(=O)OCCN2CCN(C3=NS(=O)(=O)c4ccccc43)CC2)cc1OC | -6 | . | 2 | 5 | -1 | 0 | -0.3 | 3.1 | -12 | i
